# Measles inh – inhibitors of measles virus growth in infected cells; 33,000 tested, 0.1% active; z-score (test concentration not listed); infected Vero cells, GFP fluorescence, 64 h; stronger effect = lower value;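 active means z-score under -3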;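 further: score is relative to mean and SD of the compound wells of a plate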
# * hit, by the source's call.
# The first 17 compounds, to show the layout:
SMILES,Measles inh
Cc1ccc2c(c1)C(c1ccccc1)N(C(=O)c1ccco1)CC(=O)N2 (stereo not drawn),0.38
O=[N+]([O-])c1cccc(-c2nc(=S)c3c(n2CCCO)CCCC3)c1,0.37
Cc1ccc(Cl)cc1N1COc2ccc3ccccc3c2C1,-0.55
CCc1ccc(OC(=O)c2cccc(C(=O)OC)n2)cc1,-0.14
Cc1ccc(-c2nc3ccccn3c2Nc2ccccc2)o1,-2.2
CN(C)C(=O)CN1C(=O)C2CC=C(Cl)CC2C1=O (stereo not drawn),0.19
Cc1ccccc1C(=O)Nc1ccc(C(=O)Nc2cccc(C(F)(F)F)c2)cc1,-1.2
Fc1ccc(OCCn2cc(C(=S)N3CCCCC3)c3ccccc32)cc1,-0.23
O=S(=O)(Nc1ccccc1F)c1cccc2nsnc12,0.49
O=C(C1CCN(S(=O)(=O)N2CCOCC2)CC1)N1CCC(Cc2ccccc2)CC1,-0.63
O=C1CC(c2cccc([N+](=O)[O-])c2)Sc2nc3ccccc3n21 (stereo not drawn),-0.76
CCN1CCN(S(=O)(=O)c2ccc(Oc3ccccc3OC)cc2)CC1,-0.62
c1ccc2c(OCc3nc4c5c6c(sc5ncn4n3)CCCCC6)cccc2c1,-0.29
CC(=O)N1CCC(=O)Nc2c1cc(Br)cc2[N+](=O)[O-],-0.6
Cc1cccc(NC(=O)CNC(=O)Cn2ccc3ccccc3c2=O)n1,0.15
COc1ccc(-c2cc(C3CC3)nc3sc(C(=O)c4cccs4)c(N)c23)cc1,2.2
CCOc1cc2c(cc1OCC)C1C(C(=O)NCc3cccc(OC)c3)c3ccccc3C(=O)N1CC2 (stereo not drawn),0.41

# The listing, previewed entries included:
SMILES,Measles inh
Cc1ccc2c(c1)C(c1ccccc1)N(C(=O)c1ccco1)CC(=O)N2 (stereo not drawn),0.38
O=[N+]([O-])c1cccc(-c2nc(=S)c3c(n2CCCO)CCCC3)c1,0.37
Cc1ccc(Cl)cc1N1COc2ccc3ccccc3c2C1,-0.55
CCc1ccc(OC(=O)c2cccc(C(=O)OC)n2)cc1,-0.14
Cc1ccc(-c2nc3ccccn3c2Nc2ccccc2)o1,-2.2
CN(C)C(=O)CN1C(=O)C2CC=C(Cl)CC2C1=O (stereo not drawn),0.19
Cc1ccccc1C(=O)Nc1ccc(C(=O)Nc2cccc(C(F)(F)F)c2)cc1,-1.2
Fc1ccc(OCCn2cc(C(=S)N3CCCCC3)c3ccccc32)cc1,-0.23
O=S(=O)(Nc1ccccc1F)c1cccc2nsnc12,0.49
O=C(C1CCN(S(=O)(=O)N2CCOCC2)CC1)N1CCC(Cc2ccccc2)CC1,-0.63
O=C1CC(c2cccc([N+](=O)[O-])c2)Sc2nc3ccccc3n21 (stereo not drawn),-0.76
CCN1CCN(S(=O)(=O)c2ccc(Oc3ccccc3OC)cc2)CC1,-0.62
c1ccc2c(OCc3nc4c5c6c(sc5ncn4n3)CCCCC6)cccc2c1,-0.29
CC(=O)N1CCC(=O)Nc2c1cc(Br)cc2[N+](=O)[O-],-0.6
Cc1cccc(NC(=O)CNC(=O)Cn2ccc3ccccc3c2=O)n1,0.15
COc1ccc(-c2cc(C3CC3)nc3sc(C(=O)c4cccs4)c(N)c23)cc1,2.2
CCOc1cc2c(cc1OCC)C1C(C(=O)NCc3cccc(OC)c3)c3ccccc3C(=O)N1CC2 (stereo not drawn),0.41
CCOc1cc(CN2CCN(Cc3cccc(Br)c3)CC2)ccc1OC,0.45
O=C(CCCCCN1C(=O)c2cccc([N+](=O)[O-])c2C1=O)Nc1ccccc1C(F)(F)F,-0.63
O=C(CCC1Nc2c3ccccc3nc(=S)n2C1=O)N1CCN(c2ccc(Cl)cc2)CC1 (stereo not drawn),-0.24
COc1cc(NC(=O)c2cccc(Br)c2)c(C(=O)O)cc1OC,-1.6
O=C1CSC(c2cccc([N+](=O)[O-])c2)N1c1ccc(Cl)cn1 (stereo not drawn),-1.9
Cc1cc(C)c(NS(=O)(=O)c2c(C)n[nH]c2C)c(C)c1,-0.32
CCOC(=O)c1c(NC(=O)c2ccc3c(c2)OCO3)sc(C(=O)NC2CCCC2)c1C,0.05
O=C(CCc1c[nH]c2ccccc12)N1CCN(C(c2ccc(F)cc2)c2ccc(F)cc2)CC1,-0.37
CCOCCCn1c(=N)c(C(=O)NC(C)c2ccccc2)cc2c(=O)n3cccc(C)c3nc21 (stereo not drawn),0.22
OCCCc1nc2ccccc2[nH]1,0.17
COCC(=O)Cc1nc(N)nc(Nc2ccc(C)cc2)n1,-1.1
CCc1ccc(-c2nc(-c3ccc(C)cc3)no2)cc1,1.4
O=C(c1cc2nc(-c3ccco3)cc(C(F)(F)F)n2n1)N1CCc2ccccc2C1,-0.69
COc1cccc(C=Cc2cc(C(F)(F)F)[nH]c(=O)n2)c1OCC(=O)O,-1.4
CCCCn1c(C(F)(F)F)nc2c(=O)oc3ccccc3c21,-0.07
CC(=O)N1CCc2cc(S(=O)(=O)CCC(=O)Nc3ccccc3F)ccc21,0.37
Cc1ccc(CNc2ncnc(N)c2[N+](=O)[O-])cc1,-1.1
CC(C)n1c(SCCc2ccccc2)nc2c1c(=O)[nH]c(=O)n2C,-0.74
C=C(C)c1cccc(C(C)(C)NC(=O)N2CCN(c3ccccc3F)CC2)c1,0.18
O=C(Nc1ccc(Br)cc1)c1cc2c(=O)n3ccccc3nc2s1,-0.82
O=C(CSc1nc2c(cnn2-c2ccc(Cl)cc2)c(=O)[nH]1)Nc1ccc2c(c1)OCO2,-0.64
Cc1ccccc1C(=O)Nc1sc2c(c1C(=O)N1CCCCC1)CCC(C(C)(C)C)C2 (stereo not drawn),-0.66
CCCC(O)(CCN1CCOCC1)c1ccc(OC)cc1 (stereo not drawn),1.1
Cc1nc2c(C(=O)n3ccnc3)cnn2c(C)c1Cc1ccccc1Cl,0.6
CCOC(=O)c1sc(NC(=O)c2cc(-c3ccc(OC)c(OC)c3)nc3ccccc23)nc1C,-1.2
O=C(c1cccs1)N1CCN(S(=O)(=O)c2ccc3ccccc3c2)CC1,-0.41
CC(=O)Nc1ccc(S(=O)(=O)Nc2ccc(Br)cc2)cc1,0.43
O=C(Cc1ccccc1)N1CCN(S(=O)(=O)c2ccc(Br)cc2)CC1,-0.51
COc1cccc2cc(-c3nc(-c4ccc5ccccc5c4)cs3)c(=O)oc12,-0.08
COc1ccc(C=Nc2ccc(S(N)(=O)=O)cc2)cc1O,0.84
CCOc1ccc(CNC(=O)c2cn(C3CCCC3)c(=O)c3c2c2ccccc2n3C)cc1,-0.98
CSc1ccc(C2C3C(=O)N(Cc4ccccc4)C(=O)C3ON2c2ccc(Cl)cc2)cc1 (stereo not drawn),0.25
O=C(CC1(O)C(=O)Nc2ccccc21)c1ccc2c(c1)OCO2 (stereo not drawn),-0.5
COc1ccc(C(=O)N2CCN(CC=Cc3ccccc3)CC2)cc1,1.7
C=CCSc1nnc2c(n1)OC(c1cc(Br)c(OC(C)=O)c(OC)c1)N(C(C)=O)c1ccccc1-2 (stereo not drawn),-0.43
COc1ccc([N+](=O)[O-])cc1N=Cc1ccc(N(C)C)cc1,0.27
CC1CCc2cc(F)ccc2N1C(=O)CN1C(=O)c2ccccc2C1=O (stereo not drawn),-0.42
Cc1c(Cl)c([N+](=O)[O-])nn1CCCC(=O)Nc1ccccc1C(F)(F)F,-1.3
CCOC(=O)CNC(=O)c1cc2c(n(-c3ccc(OC)cc3)c1=O)CC(C)(C)CC2=O,-2
CCCCOC(=O)c1cccc(N2C(=O)c3ccc(C(=O)O)cc3C2=O)c1,-0.21
CC1(C)C(=O)C2(CCCCC2)C(=O)OC1c1ccccc1[N+](=O)[O-] (stereo not drawn),0.18
C=CCNS(=O)(=O)c1ccc(F)c(C(=O)Nc2ccc(C)cc2)c1,0.4
O=C(CN1C(=O)CSc2ccc(S(=O)(=O)N3CCCCC3)cc21)NCc1ccc(F)cc1,0.11
# (list continues)
SMILES,Measles inh
CCOc1ccc(NC(=O)c2ccc(Cn3c(=O)[nH]c4ccsc4c3=O)cc2)cc1,-1.1
COc1cc(OC)c(N2C(=O)NC3CC2(C)Oc2ccc([N+](=O)[O-])cc23)cc1Cl (stereo not drawn),-0.88
O=C(O)CCC(=O)N1N=C(c2cccs2)CC1c1cc2ccccc2nc1Cl (stereo not drawn),-0.79
COC(=O)C1=C(C)Nc2ncnn2C1c1ccc(OCc2ccccc2)c(OC)c1 (stereo not drawn),-0.32
COCCNC(=O)CCCn1c(=O)[nH]c2ccsc2c1=O,0.87
Oc1ccccc1-c1n[nH]c(=S)o1,-0.51
CCc1ccccc1-n1c(C)nc2cc(C(=O)NCc3ccccc3OC)ccc21,-1.3
O=C(NC1CCCC1)c1cc(-c2ccc(Cl)cc2)nc2ccccc12,-0.5
O=C(CC(=O)c1ccccc1O)c1ccco1,-1.9
CCCCCCNC(=O)c1c(O)c2c([nH]c1=O)CCCC2,-0.13
Cc1ccc(C2=NNC3(S2)C(=O)Nc2ccccc23)cc1 (stereo not drawn),-0.77
Cc1ccc(C(c2ccc([N+](=O)[O-])cc2)c2ccc(C)o2)o1,-1.6
O=C(CSc1ncnc2nc[nH]c12)c1ccc([N+](=O)[O-])cc1,1.9
COc1ccc(NC(=O)c2c(NC(=O)C(F)(F)F)sc3c2CCCCC3)cc1,0.18
COc1ccc2c(c1)CCc1c(C(=O)Nc3c(C)nn(Cc4ccccc4C)c3C)noc1-2,0.29
O=C(NCCNC(=O)c1ccccc1O)c1ccccc1O,-0.52
O=C1C(=O)N(CCN2CCOCC2)C(c2ccccc2)/C1=C(\O)c1ccc(Br)cc1 (stereo not drawn),-0.33
CC(C)c1ccc(NC(=O)C2CCCN(S(=O)(=O)c3cccc4nsnc34)C2)cc1 (stereo not drawn),0.69
Cc1ccc(C(=O)Nc2ccc(C)cc2C)cc1,-0.39
CC(C)(C)c1ccc(C2/C(=C(\O)c3ccc(Cl)cc3)C(=O)C(=O)N2Cc2cccnc2)cc1 (stereo not drawn),-0.08
C=CCc1c(C)c2ccc(OC(C)=O)cc2oc1=O,1.4
COc1ccc(-n2nc(C(=O)N(C)C3CCCCC3)c3ccccc3c2=O)c(OC)c1,1.6
COc1cc(-c2nnc(NC(=O)c3ccc(S(=O)(=O)N4CC(C)CC(C)C4)cc3)o2)cc(OC)c1OC (stereo not drawn),1.7
CCc1cc2c(NCCCC(=O)O)ncnc2s1,0.91
O=C(Cn1cnc2ccccc2c1=O)NCCC(=O)NC1CCCCCC1,0.12
Cc1cc(C)cc(NC(=O)CSc2oc(-c3ccco3)nc2S(=O)(=O)c2ccc(Cl)cc2)c1,0.98
CC(C)CCNC(=O)c1cc(=O)[nH]c2ccc(S(=O)(=O)N3CCC(C)CC3)cc12,-0.63
CSC1=NC(=Cc2ccc(N(C)C)cc2)C(=O)S1,0.64
CCOC(=O)c1c(NC(=O)c2ccccc2OC(C)=O)sc2c1CCC2,-1.9
CCOC(=O)c1sc2nc(SCC#N)n(CCc3ccccc3)c(=O)c2c1C,1.5
Cc1cc(OCC(=O)Nc2c(C)n(C)n(-c3ccccc3)c2=O)ccc1[N+](=O)[O-],-0.72
c1ccc(N=C(c2ccccc2)c2ccccc2)cc1,0.24
O=C(O)CCNc1ncnc2ccc(Br)cc12,-0.57
c1ccc(OCc2nc3c4c5c(sc4ncn3n2)CCCCC5)cc1,0.04
CC(C)c1ccc(-c2cc(C3CC3)nc(N)c2C#N)cc1,-1.8
COc1ccc(S(=O)(=O)N(CC(=O)Nc2cccc(C)c2)c2ccc(C)cc2)cc1,-0.59
COc1ccccc1N1CCN(C(=O)c2ccc(Sc3ccc(Br)cc3)c([N+](=O)[O-])c2)CC1,0.03
O=C(O)c1ccc(Cn2cccn2)o1,0.54
O=C(Nc1nc(-c2ccccc2)c(C(=O)c2ccccc2)s1)c1cccc([N+](=O)[O-])c1,-0.32
O=C(NCC1CCCO1)c1sc(=S)n2c1[nH]c(=O)c1ccc(C(=O)N3CCN(c4ccccc4)CC3)cc12 (stereo not drawn),0
O=C(CSCc1ccc(F)cc1)N1CCN(c2ccc(F)cc2)CC1,-0.44
CC(=O)c1cccc(Nc2ncnc3ccc(Br)cc23)c1,0.2
Fc1ccccc1CN1CCN(C2CCCC2)CC1,-0.83
O=C(Nc1ccccc1C(=O)NC1CCCCC1)c1cccc(S(=O)(=O)NC2CCCCC2)c1,-0.51
CCN(CC)C(=O)C[n+]1cccc(C(N)=O)c1,-0.37
Clc1ccccc1-c1nc2ccccc2[nH]1,1.7
COc1cccc(Nc2nc(Cl)ccc2[N+](=O)[O-])c1,-1.4
O=C(O)c1ccc(NC(=O)c2cccc(N3C(=O)C4C5c6ccccc6C(c6ccccc65)C4C3=O)c2)cc1 (stereo not drawn),0.34
Cc1cc(NC(=O)CN(C)Cc2ccccc2)c2ccccc2n1,0.11
CCCCOC(=O)C1=C(C)NC2=C(C(=O)CC(C)(C)C2)C1c1ccc(OC)c(OC)c1OC (stereo not drawn),0.4
O=C1C2ON(c3ccccc3)C(c3ccccn3)C2C(=O)N1c1cccc(C(F)(F)F)c1 (stereo not drawn),-0.68
CC(=O)N1CCCOC1c1ccc([N+](=O)[O-])cc1 (stereo not drawn),1.7
COc1cccc2cc(C(=O)NC(C)=O)c(=Nc3ccccc3)oc12,0.34
COc1ccc(CNC(=O)c2ccc(C#CC(C)(C)O)cc2)cc1,1.2
COc1ccc(-n2nc(C(=O)NC(C)C)c3c4ccccc4n(C)c3c2=O)cc1,-0.9
COc1ccc(C(=O)NCc2nnc(SCC(=O)N3CCCC3)o2)cc1,1.7
Cc1nc2sc(C(=O)N3CCN(c4ccc([N+](=O)[O-])cc4)CC3)c(C)c2c(=O)[nH]1,1.4
CCOc1ccc(Oc2ccc(-c3cnc4ccccc4n3)cc2[N+](=O)[O-])cc1,2.2
CSc1nc2c(sc3ccccc32)c(=O)n1CC1CCCO1 (stereo not drawn),0.35
CCOC(=O)c1c(N=c2oc3ccccc3cc2C(=O)Nc2ccc(F)cc2)sc(C)c1C,-0.15
# The list goes on:
SMILES,Measles inh
Clc1ccccc1N1CCN(c2ncnc3sc4c(c23)CCCC4)CC1,-0.03
Cc1nnc2c(N3CCCCC3)nc3ccccc3n12,-0.41
COc1ccc(C2C=C(Nc3ccccc3)C(=O)N2c2ccccc2)c(OC)c1 (stereo not drawn),-0.64
c1ccc(-c2nnc(-c3ccccn3)nc2-c2ccccc2)cc1,-0.82
COc1ccc(C2CC(c3ccc(C)cc3)Nc3ncnn32)c(OC)c1OC (stereo not drawn),-0.36
CCCOc1ccc(C(=O)Nc2ccc(NC(=O)c3cccc(C)c3)cc2)cc1,0.18

# An excerpt, so the mix of outcomes need not match the whole.
